VACV mCherry inh = vaccinia inhibition (mCherry reporter). hit rate 0.63% among 310,000. Vaccinia virus mCherry reporter infection, fluorescence; about a quarter of the inactives have no number. Potency, µM (series often up to 36.5 µM), inactives show top-dose activity change, negative = inhibition, most hits filed as inhibitors; active = well fitted inhibition curve with a large enough effect; inconclusive = small, poorly fitted or top-dose-only effect; inactive = no such curve, though single readings can be large or run the other way; tested in A549 cells; further: nearly all actives have a fitted effect of over 35% in size; inactives centre near -10
VACV Venus inh = inhibitors of vaccinia virus (Venus reporter); Vaccinia virus Venus reporter expression, fluorescence; Potency, µM (top dose mostly 36.5 µM), for inactives: at the top dose activity change, negative = inhibition, hits mostly inhibitors; hit rate 0.46% among 330,000; active means well fitted inhibition curve with a large enough effect; inconclusive means small, poorly fitted or top-dose-only effect; inactive means no such curve, though single readings can be large or run the other way; tested in A549 cells; further: nearly all actives have a fitted effect of over 30% in size; inactives centre near -10
* = called active by the depositor; i = inactive; ? = inconclusive; . = not tested or not shown; & = joins results of further samples; [ ] = another dose, or the depositor's remark. On the % scale 0 is the no-effect control and ±100 the full control effect; potency means the concentration at half of the fitted maximal effect.

molecule	VACV Venus inh	VACV mCherry inh
CCC1CCC(C(=O)NC(C(=O)Nc2ccc3c(c2)OCCO3)C(C)C)CC1 (configuration not stated)	-6%	-2%
c1ccc(CNc2nc(NCCOc3ccccc3)c3sccc3n2)cc1	-9%	i
Cc1ccc(S(=O)(=O)NCc2ccc(C(=O)N3CCN(c4ccccc4)CC3)cc2)cc1	-19%	?
Cc1cc([N+](=O)[O-])nn1CCCC(=O)NCc1ccccc1	-15%	i
COC(=O)c1c(C)oc2ccc(N(C(=O)Oc3ccccc3)S(=O)(=O)c3ccc(C(C)(C)C)cc3)cc12	-26%	?
O=C(NC(n1ccc(=O)[nH]c1=O)C(Cl)(Cl)Cl)C12CC3CC(CC(C3)C1)C2 (configuration not stated)	-10%	-14%
Cc1nn(C(C)C(=O)NCc2cccc(F)c2)c(=O)c2c1sc1ccccc12 (configuration not stated)	-13%	-5%
CC(C)C(=O)Nc1ccc([N+](=O)[O-])cc1Br	-13%	-22%
CC(=O)Nc1cc(-c2ccc(C(=O)NC3CC3)cc2)cn2c(-c3ccc(F)c(Cl)c3)cnc12	-20%	14%
CCOc1c(CNCCSc2nnnn2C)cccc1OC	7%	15%
COc1cccc(NC(=S)NCc2cccs2)c1	-12%	-12%
CC(NS(C)(=O)=O)C(c1cccs1)N1CCN(c2ccccc2F)CC1 (configuration not stated)	-2%	-8%
Cc1ccc(OCC(=O)N(C)CC(=O)Nc2ccccc2Cl)c([N+](=O)[O-])n1	-27%	-13%
Cc1cccc(NC(=O)CN2C(=O)S/C(=C\c3ccc(O)c([N+](=O)[O-])c3)C2=O)c1	-11%	-7%
CC(=O)Nc1ccc(CN2CCCC(C(=O)c3cccc(C(F)(F)F)c3)C2)cc1 (configuration not stated)	-17%	-8%
CCS(=O)(=O)N1Cc2cc(C(=O)NCCOC)nc(-c3cccc(-c4ccncc4)c3)c2[C@@H]1CCO	2%	2%
COc1ccc(S(=O)(=O)N2CCOCC2)cc1NC(=O)c1cc2c(s1)CCCC2	-3%	-17%
Cc1ccc(C(=S)N2CCN(Cc3ccccc3)CC2)s1	-6%	-12%
CC1CCCN(C(=O)NC2CC(=O)N(c3ccc4c(c3)OCCO4)C2)C1 (configuration not stated)	-7%	i
COc1ccc(NC(=O)C(=O)Nc2cccc3ccccc23)c(OC)c1	-2%	i
N#Cc1c(SCC(=O)Nc2nc3ccc(Br)cc3s2)sc2c(O)cc(=O)[nH]c12	-16%	i
O=C(Cn1c(=O)n(Cc2ccc3c(c2)OCO3)c(=O)c2oc3ccccc3c21)Nc1ccccc1F	-9%	-9%
CCN(CC)CCOC(=O)C(Cc1cccc2ccccc12)CC1CCCO1 (configuration not stated)	-18%	-27%
CCCCC(=O)N1CCCC(C)C1 (configuration not stated)	-3%	-2%
CC(C)=CC(=O)OCC(=O)Nc1ccc(Cl)cn1	-12%	.

Single records, from the list above. Order of screens: VACV Venus inh | VACV mCherry inh
COc1ccc(S(=O)(=O)N2CCOCC2)cc1NC(=O)c1cc2c(s1)CCCC2 is listed as -3% | -17%
CCCCC(=O)N1CCCC(C)C1 (configuration not stated) is listed as -3% | -2%
Cc1cccc(NC(=O)CN2C(=O)S/C(=C\c3ccc(O)c([N+](=O)[O-])c3)C2=O)c1 is listed as -11% | -7%
Cc1ccc(OCC(=O)N(C)CC(=O)Nc2ccccc2Cl)c([N+](=O)[O-])n1 is listed as -27% | -13%

Structural class: the entries above with bromine
molecule	VACV Venus inh	VACV mCherry inh
CC(C)C(=O)Nc1ccc([N+](=O)[O-])cc1Br	-13%	-22%
N#Cc1c(SCC(=O)Nc2nc3ccc(Br)cc3s2)sc2c(O)cc(=O)[nH]c12	-16%	i

The list continues:
molecule	VACV Venus inh	VACV mCherry inh
OC1COC(c2ccccc2)OC1C1OC(c2ccccc2)OCC1O (configuration not stated)	-9%	-6%
CN(C)C1=NC[C@H](Cc2ccccc2)N1CCC1CCCC1	-28%	-24%
COc1ccccc1C(=O)N1CC(=O)Nc2ccc(C)cc2C1c1ccc(F)cc1 (configuration not stated)	-5%	i
COc1ccc(OC)c(NC(=O)C2CCN(S(C)(=O)=O)CC2)c1	-15%	-20%
CC1=C(C(=O)NCc2ccccn2)C2(CCC(C)CC2)OC1=O (configuration not stated)	5%	-9%
CCN(CC)CCCNc1cc(-c2ccccc2)nc(C)n1	-7%	-10%
COc1ccc(S(=O)(=O)N2CCCCCC2)cc1NC(=O)c1ccccc1	-26%	-29%
Oc1c(C=C2N=c3ccccc3=N2)sc(=S)n1-c1ccccc1	-8%	-2%
COCCSc1nnc(NC(=O)C2CCN(C(=O)c3ccco3)CC2)s1	2%	-13%
CC(=O)Cn1ncc(Br)c(Br)c1=O	?	?
N=C1S/C(=C\c2ccco2)C(=O)N1c1ccc2c(c1)OCO2	-5%	-13%
COc1ccccc1N1CCN(C(c2cccs2)c2nnnn2C2CCCC2)CC1 (configuration not stated)	-5%	-11%
COc1cccc(OCCNC(=O)c2ccc(C)cc2)c1	-6%	-14%
CCS(=O)(=O)NCCNc1ccc([N+](=O)[O-])cc1	-12%	-5%
O=C(Cn1nnnc1-c1ccccc1F)Nc1ccc(F)c(F)c1	-10%	-9%
Cc1nc(C(F)(F)F)ccc1C(=O)N1CCC1(C)C(=O)NCc1ccc(Cl)cc1 (configuration not stated)	-7%	-5%
CCOC(=O)c1ccccc1NS(=O)(=O)c1c(-c2ccc(C)cc2)csc1C(=O)OC	-14%	-1%
COc1ccc(OC)c(-n2c(-c3ccc(C)cc3)n[nH]c2=S)c1	-11%	-13%
CCCn1nnnc1SCC(=O)N1CCCCC1	-1%	8%
COc1ccc(C2=CSC3=NNC4(CCCCC4)NN23)cc1	-6%	-12%
O=c1c2ccsc2ncn1Cc1ccccc1F	-12%	i
Cc1ccc(Cl)cc1NC(=O)CN1C=NS(=O)(=O)c2ccccc21	-16%	-16%
O=C(CSc1nc(-c2ccccc2)cc(=O)[nH]1)Nc1ccccc1F	4%	-1%
CC(=O)Oc1ccc(OC(C)=O)c2c1C1C=CC2CC1	-11%	i
COCCn1c(SCC(=O)Nc2cc(C)on2)nnc1-c1c[nH]c2ccccc12	0%	-15%
COC(=O)Cn1cnc2sc(C)c(S(=O)(=O)N3CCC(C)CC3)c2c1=O	-11%	-13%
CCCC[C@@H]1C[C@H]1[C@@H](NC(=O)c1ccco1)c1ccc(Cl)cc1	-10%	i
COc1cc(CNCCO)cc(Br)c1OCc1ccccc1Cl	?	?
CS(=O)(=O)Nc1ccc(C2=NN(C(=O)c3ccco3)C(c3cccc(F)c3)C2)cc1 (configuration not stated)	-23%	-8%
O=C1c2ccccc2NC(c2ccc3c(c2)OCO3)N1Cc1ccco1 (configuration not stated)	-12%	-5%
O=c1c(Cc2c(F)cccc2Cl)c(O)ccn1Cc1ccc(F)cc1	-18%	i
Cc1c(C(=O)NCCCn2ccnc2)oc2ccccc12	-1%	i
CCC1CCCCN1CCCNC(=O)Cn1ncn2nc(-c3ccc(OC)cc3)cc2c1=O (configuration not stated)	-13%	-17%
CC(C)(C)C(=O)NNC(=O)c1ccc(Oc2cc(Cl)cc(Cl)c2)o1	-6%	-11%
CN(C)S(=O)(=O)N1CCN(S(=O)(=O)N2CCOCC2)CC1	8%	14%
CCN(C(=O)c1cc2c(Cl)nc3ccccc3c2s1)c1cccc(Cl)c1	1%	8%
O=C(NCc1cccs1)C1CCCN1C(=O)Nc1cccc(F)c1 (configuration not stated)	-11%	-1%
CCC1CCCCN1CCCNC(=O)CN1C(=O)c2cccnc2Oc2ccc(C)cc21 (configuration not stated)	8%[7.34 µM]	28%[7.34 µM]
O=C(Cc1ccc(NC2=NC3CS(=O)(=O)CC3S2)cc1)NCc1ccccc1Cl (configuration not stated)	-7%	i
Cc1ccc(Cn2cc(/C=C(/C#N)C(=O)Nc3cccc(Cl)c3)c3ccccc32)cc1	-10%	-20%
CCOC(=O)C1CCN(C(=O)Cn2c(=O)cc(C)c3c(C)nn(C)c32)CC1	-17%	-1%
COc1c2c(c3c(c1OC)c(=O)c1ccccc1n3C)OCO2	0%	33%[activator]
Cc1cc(NS(=O)(=O)c2ccc(NC(=O)C(C)Oc3ccc4c(C)cc(=O)oc4c3)cc2)no1 (configuration not stated)	-11%	.
CCOC(=O)c1ccccc1NC(=O)c1cn(-c2ccc(C)c(C)c2)c(=O)c2ccccc12	-5%	0%
COc1cccc(-c2nc(CS(=O)(=O)CC(=O)NC3CCC(C)CC3)c(C)o2)c1 (configuration not stated)	-18%	-9%
Cc1cc(C)c(NC(=O)Cc2ccc(-n3cccc3)cc2)c(C)c1	-8%	-7%
O=S(=O)(c1ccccc1F)N1CCN(c2nc3ccccc3s2)CC1	-4%	i
O=C(NCCN1CCOCC1)c1cc(-c2ccc(Br)cc2)on1	0%	-18%
O=C(NCC1(c2ccccc2)CCCC1)c1ccc(Br)o1	?	-25%
CC1=C(C(=O)OC(C)C)C(c2cccs2)N2C(=O)C(C)SC2=N1 (configuration not stated)	-9%	i

Next part:
molecule	VACV Venus inh	VACV mCherry inh
Cc1ccc(Cn2nc(C)c3cc(C(=O)OCC(N)=O)sc32)cc1	-9%	.
CCOc1ccc(CCNC(=O)CCSCc2ccc(Cl)cc2)cc1OCC	-5%	-10%
O=C(NCc1ccc(OC(F)(F)F)cc1)c1cccc2c1C(=O)c1ccc(N3CCCCC3)cc1S2(=O)=O	221%[activator]	-26%
Cc1ccc(NC(=O)COC(=O)COc2ccc(Cl)cc2C)c([N+](=O)[O-])c1	-10%	i
Cc1ccc(-n2nc3c(c2NC(=O)c2ccco2)CS(=O)C3)cc1 (configuration not stated)	-6%	-13%
O=c1cccc2n1CC1CC2CN(S(=O)(=O)c2cc(Cl)ccc2Cl)C1 (configuration not stated)	-8%	i
CCCCCc1cc(=O)c2ccccc2o1	-25%	-6%
Clc1cc(-c2ccccc2)nc(-c2ccccc2)n1	-9%	i
Cc1cc(C)n2nc(SCC(=O)N(C)c3ccccc3)nc2n1	-13%	i
Cc1ccc(NC(=O)Nc2nnc(N3CCCC3)s2)cc1	-3%	-5%
CC(SC1=NCCS1)C(=O)Nc1nnc(-c2ccc(F)cc2)s1 (configuration not stated)	-6%	i
COc1ccc(C(=O)N2N=C(c3cccc(OC)c3)CC2(O)C(F)(F)F)cc1 (configuration not stated)	15%	i
COc1ccccc1CO/N=C/NC(=O)c1c(OC)ccnc1Oc1ccc(F)cc1	-7%	-14%
CC1CCCN(c2nc(NCc3ccco3)nc(N)c2[N+](=O)[O-])C1 (configuration not stated)	?	?
O=C(Cn1c(=O)nc(-c2ccccc2)c2ccccc21)Nc1cccc(C(F)(F)F)c1	0%	-5%
COc1ccc(-n2c3c(c(=O)[nH]c2=O)C(NC(C)=O)(C(F)(F)F)C(=O)N3)cc1 (configuration not stated)	-1%&-2%	0%&-10%
Cn1cccc1C(=O)C(=O)Nc1cccc(Cl)c1Cl	-7%	-19%
CCOC(=O)Cc1csc(NC(=O)c2ccc(C)o2)n1	-9%	-16%
CC(C)(C)C1CCC(=NNC(=O)CN(c2ccccc2)S(C)(=O)=O)CC1 (configuration not stated)	-5%	i
COc1ccc2[nH]c3c(=O)n(CCCCC(=O)N4CCCC4)c(=S)[nH]c3c2c1	-10%	-10%
CCCC(=O)Nc1cc(-c2nn(C)c(=O)c3ccccc23)ccc1N1CCOCC1	0%	-8%
COc1ccc(-c2nc(C(N)=O)c3[nH]c(=O)n(-c4cccc(Cl)c4)c3n2)cc1OC	?	?
O=C(O)c1ccc(Nc2ccc(F)c(F)c2)c([N+](=O)[O-])c1	-5%	-9%
COc1cc(CNc2ccc3[nH]c(=O)[nH]c3c2)cc(Cl)c1OCc1ccccc1F	-8%	?
COC(=O)Cc1ccc(O)c(N)c1	11%	-21%
Cn1ncc(N=Cc2ccccc2)c1C(=O)Nc1cccc(Cl)c1	-15%	i
CC(C)c1ccc(CNc2ccc(N3CCOCC3)cc2)cc1	-13%	-18%
COc1ccc(N2CCN(c3oc(-c4ccccc4C)nc3S(=O)(=O)c3ccccc3)CC2)cc1	-2%	-11%
Cc1ccc(NC(=O)CSC2=Nc3ccccc3C3CC=NN23)c(C)c1 (configuration not stated)	-12%	-23%
CC(C)c1ccc(NC(=O)[C@H]2CSCN2C(=O)[C@@H]2CCC(=O)N2)cc1	-20%	i
O=C(CSc1nc(C(F)(F)F)cc(=O)[nH]1)N1CCCCCC1	-6%	i
COc1cc(NC(=O)c2ccc(CNc3c(N4CCOCC4)c(=O)c3=O)cc2)cc(OC)c1	-5%	-2%
O=C(COc1ccc2c(c1)OCO2)Nc1nccs1	-17%	i
COC1=CC(=O)OC(c2cccc(C#N)c2)C1 (configuration not stated)	8%	-10%
CCSc1nnc(Cc2cc(=O)[nH]c(=O)[nH]2)n1-c1cccc(C)c1	-4%	i
Cc1nc(NC(C)C)c2cnn(CCc3ccccc3)c2n1	-9%	-11%
O=C(NC1CCN(Cc2ccccc2)CC1)C1CCN(S(=O)(=O)c2cccc3cccnc23)CC1	-22%	-26%

Outcome played no part in choosing rows; about 0.88% have a hit in one of these screens.
